High-throughput results from PubChem BioAssay.
MgrA-DNA mod: S. aureus MgrA activity modulators, primary screen, biochemical, S. aureus Newman, fluorescence polarization; MgrA-DNA binding; inhibition, %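 (about 10 µg/mL by stock and volumes)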; 0.13% of 84,000 active; AID 602314, 2012;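 active = above 50% in either of two replicates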;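 note: 0% = protein plus DNA without compound and 100% = DNA alone without protein; higher means less MgrA bound to DNA so lower polarization; one replicate is shown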
S aureus helic: inhibitors of S. aureus replicative helicase, primary screen, biochemical, fluorescence unwinding readout; purified S. aureus helicase, fluorescence unwinding assay; about half of the hits fall short of the stated cut; inhibition, %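 (tested at about 80 µM)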; 0.05% of 120,000 active; replicative DNA helicase (DnaC/DnaB), Staphylococcus aureus;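 active = both duplicates at 50% or more, or one of them with a favoured structure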;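 note: 0% = mean of negative control wells and 100% = mean of positive control wells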
* hit, by the source's call; . = not tested or not shown. Only part of the results is shown. The share of hits here may be higher or lower than overall.

Start of the listing, in advance, 3 compounds:
SMILES	MgrA-DNA mod	S aureus helic
NC(=O)c1ccsc1NC(=O)COc1ccccc1	7.7	2
O=C(O)C1CCCN1S(=O)(=O)c1cccc2nsnc12 (stereo not drawn)	-1.7	.
N#C/C(=C/c1cc(Br)c(Br)o1)c1ccccc1	-2.5	3

The list itself, from the first entry:
SMILES	MgrA-DNA mod	S aureus helic
NC(=O)c1ccsc1NC(=O)COc1ccccc1	7.7	2
O=C(O)C1CCCN1S(=O)(=O)c1cccc2nsnc12 (stereo not drawn)	-1.7	.
N#C/C(=C/c1cc(Br)c(Br)o1)c1ccccc1	-2.5	3
CCOC(=O)c1cc2c(ccc3ccccc32)o1	0.3	13
CC(=O)NC1C2CN3CCN(C2)CC1(Cc1ccccc1)C3 (stereo not drawn)	1.6	6
CCc1ccc(N2C(=O)CC(Sc3ccccn3)C2=O)cc1 (stereo not drawn)	1.5	0
CCN(CC)c1nc(N)nc(Nc2ccc3cc(-c4ccccc4)c(=O)oc3c2)n1	-2.3	.
CN(C)C=C=C(O)c1ccccc1C(=O)c1ccc(Cl)cc1	-2.6	.
COc1cc(I)c(OC)cc1Cl	3.5	.
N#CC(C#N)=Cc1ccc(OC(=O)c2cccs2)cc1	.	-1
CCn1c2ccccc2c2nnc(SCC(=O)c3cc(C)n(-c4ccc5c(c4)OCCO5)c3C)nc21	.	-15
O=C1N=C(N2CCN(C(=O)c3cc4ccccc4oc3=O)CC2)S/C1=C\c1cccs1	-1.3	7
N#Cc1ccccc1/C=C/C(=O)N(CCO)CC(O)c1ccccc1 (stereo not drawn)	-1.2	8
CC(C)NC(=O)C(C)n1ncn2cccc2c1=O (stereo not drawn)	-1.1	10
COc1ccccc1NC(=O)c1ccc(N)cc1	0.4	14
CCO/C=N/c1c(C#N)c2c(c(=S)n1C)COC(C)(C)C2	-1.4	-1
O=C(c1nc(-c2ccc(Cl)cc2)n2c1CCCCC2)N1CCc2ccccc21	0.2	0
COc1cc2c(=O)n(CC3CCCO3)c(=O)n(CC(=O)c3cccc(Br)c3)c2cc1OC (stereo not drawn)	.	-8
O=C(N1CCCC1)N1c2ccccc2C=Cc2ccccc21	2.0	-6
COC(=O)c1cc2sccc2n1C(C)C(=O)Nc1ccccc1OC (stereo not drawn)	-0.7	2

Some of these compounds in order of their number in MgrA-DNA mod, ascending:
SMILES	MgrA-DNA mod	S aureus helic
CN(C)C=C=C(O)c1ccccc1C(=O)c1ccc(Cl)cc1	-2.6	.
O=C(O)C1CCCN1S(=O)(=O)c1cccc2nsnc12 (stereo not drawn)	-1.7	.
CC(=O)NC1C2CN3CCN(C2)CC1(Cc1ccccc1)C3 (stereo not drawn)	1.6	6

Next records:
SMILES	MgrA-DNA mod	S aureus helic
CC(C)(C)c1ccc(NC(=O)C2CCCCN2S(=O)(=O)c2ccccc2)cc1 (stereo not drawn)	.	3
N/C(=N\OC(=O)C(Cl)Cl)c1ccc(OCc2ccc(Cl)cc2)cc1	0.7	.
O=C(OCCN1CCOCC1)C1c2ccccc2Oc2ccccc21	.	9
CN(C)CCCn1c(N)c(-c2nc3ccccc3[nH]2)c2nc(C#N)c(C#N)nc21	-0.2	1
NS(=O)(=O)c1ccc(NC(=O)OCC(F)(F)F)cc1	.	-7
Cc1c(C(=O)N2CCC3(CC2)OCCO3)sc2nc3n(c(=O)c12)CCCC3	-0.8	7
CC12CC(c3ccccc3O1)N(C(=O)c1cccc(F)c1)C(=S)N2c1ccccc1 (stereo not drawn)	1.4	9
O=C(NC1CCc2ccccc21)c1n[nH]c(=O)c2ccccc12 (stereo not drawn)	.	-14
CCN(Cc1nc2ccccc2c(=O)[nH]1)Cc1nc2ccc(Cl)cc2n1CCO	.	34
CN1CCN(CC2CC=CCC2)CC1 (stereo not drawn)	-3.7	5
COc1ccc(S(=O)(=O)Nc2cc3oc4ccccc4c3cc2OC)cc1	0.8	1
CC1CCN(C(=O)c2cc3c(s2)-c2ccc(Cl)cc2SC3)CC1	-2.2	3
COC(=O)NCN1C(=O)C2C3C=CC(C3)C2C1=O (stereo not drawn)	3.4	12
N#Cc1c(Nc2ccccc2)sc2c(O)cc(=O)[nH]c12	5.3	18
COc1ccc(OC)c(C2CC(=O)N(c3ccccc3)C3=C2C(=O)OC3)c1 (stereo not drawn)	-0.9	10
COc1cc(C=C2C(=O)NC(=O)NC2=O)cc(Br)c1OCCOc1ccccc1	8.8	.
CCCOc1ccc(NC(=O)CCCN2C(=O)c3ccccc3C2=O)cc1	.	6
Cc1ccc(C2=C/C(=C3\OC(=O)c4ccccc43)C(=O)O2)cc1	6.1	4
COc1ccc(S(=O)(=O)N2CCNC(=O)CC2)cc1	.	10
Cc1onc(-c2ccccc2Cl)c1C(=O)NC(C(=O)O)C(C)C (stereo not drawn)	-4.7	13
CCc1ccccc1Oc1coc2cc(OC(=O)c3ccccc3F)ccc2c1=O	2.7	9
O=C(O)c1ccccc1SC/C=C/c1ccccc1	.	-10
CC(=O)Nc1ccc(S(=O)(=O)Nc2ccc(S(=O)(=O)Nc3cc(C)on3)cc2)cc1	-0.4	.
CC1CCN(C(=O)CN(c2ccc(Cl)c(C(F)(F)F)c2)S(=O)(=O)c2ccccc2)CC1	0.2	6
CCOC(=O)CC1=C(C(=O)OCC)C(c2ccccc2[N+](=O)[O-])C(C#N)=C(N)O1 (stereo not drawn)	0.8	.
COc1ccc2c(c1)-c1nc(N)sc1CC2	7.5	3
CC(=O)NCc1cc2c(cc1Br)OCO2	1.1	8
Fc1ccccc1OCCSc1nnc2c(n1)[nH]c1ccccc12	.	3
COc1cc(C2CC(C(F)(F)F)n3ncc(C(=O)NC(C)(C)C)c3N2)cc(OC)c1OC (stereo not drawn)	.	24
O=C1NC(=S)N(Cc2ccco2)C(=O)/C1=C\c1cn(CC(=O)N2CCOCC2)c2ccccc12	36	-2
COc1ccc(-c2c(C)nn3c(NCCC4=CCCCC4)cc(C)nc23)cc1OC	3.8	13
CCCCOc1ccc(CC(=O)O)cc1	.	-32
CCc1ccc(CN2C(=O)c3ccccc3C2C(=O)NCCc2ccccc2)cc1 (stereo not drawn)	-5.3	8
COC(=O)c1ccc(CNC(=O)c2oc3ccc(OC)cc3c2C)cc1	.	1
Cc1cc(C)cc(CC(C)CC(=O)Nc2ccccc2I)c1 (stereo not drawn)	0.9	3
O=C(C1CCCCC1)N1N=C2/C(=C/c3cccs3)CCCC2C1c1cccs1 (stereo not drawn)	.	-6
COc1ccccc1Cn1cccc1C1=NC(CC(C)C)CO1 (stereo not drawn)	.	34
O=C(Nc1ccccc1)c1ncoc1-c1ccc(Cl)cc1	-4.1	.
CCOC(=O)c1c[nH]c2ccc(OC(F)(F)F)cc2c1=O	0.4	.
CCS(=O)(=O)c1nnnn1-c1ccccc1	3.5	-3

An excerpt of these results, with two lines to a compound:
Second line of a record: MgrA-DNA mod, S aureus helic
CCS(=O)(=O)c1nnnn1-c1ccccc1
→ 3.5, -3
COc1ccc2c(c1)-c1nc(N)sc1CC2
→ 7.5, 3
O=C1NC(=S)N(Cc2ccco2)C(=O)/C1=C\c1cn(CC(=O)N2CCOCC2)c2ccccc12
→ 36, -2

Other results follow.
SMILES	MgrA-DNA mod	S aureus helic
S=c1[nH]nc(Nc2ccc(Br)cc2Cl)s1	3.6	.
Cc1onc(-c2ccccc2)c1C(=O)OCc1cc(=O)n2cc(Br)ccc2n1	.	-1
O=C(O)CCc1nc(-c2cccs2)no1	-5.6	.
CCCC(NC(=O)c1ccccc1)c1nc2ccccc2[nH]1 (stereo not drawn)	-0.8	14
O=C(CN1CCN(c2ccccn2)CC1)NC(=O)NC1CCCCC1	.	2
CN(Cc1ccccc1)C(=O)COC(=O)Cc1ccc(Cl)cc1	-1.2	-2
CCN(C(=O)c1noc2c1CCCC2)c1ccccc1	.	24
CC1(C)CC(=O)C=C(NCC(c2cccs2)N2CCOCC2)C1 (stereo not drawn)	.	4
O=C(Oc1ccc2ccc(=O)oc2c1)c1cccs1	1.4	7
Cc1nc2c(c(C)c1CCC(=O)N1CCCC1)c(=O)n(C)c(=O)n2C	.	-12
CCOC(=O)c1c(Cl)cc(C)cc1N1CCCC1	-0.8	.
CCCc1c(C(=O)Nc2cc(C)on2)cnn1-c1ccccc1	-0.6	.
CN(C(=O)CCn1c(=O)oc2ccccc21)c1ccccc1	-1.4	18
COc1ccc(N=C2SC(C(=O)NCCc3ccccc3)CC(=O)N2Cc2ccc3c(c2)OCO3)cc1 (stereo not drawn)	-0.6	.

Looked up above:
MgrA-DNA mod, CCCC(NC(=O)c1ccccc1)c1nc2ccccc2[nH]1 (stereo not drawn) : -0.8
MgrA-DNA mod, CCOC(=O)c1c(Cl)cc(C)cc1N1CCCC1 : -0.8
